Bioassay records (PubChem)
A488 autofl: A488 region autofluorescence; hit rate 0.1% among 59,000; compound autofluorescence, A488 spectral region, dye equivalency; hits give high values; max dye equivalency, M; active = above 10 nM dye equivalent; inconclusive = 1 to 10 nM; inactive = 1 nM or less; about half of its hits are not listed in these tables;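 further: highest value over a series up to 38 µM; compound alone in buffer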
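Intrinsic compound fluorescence is measured in 100 mM Tris buffer at pH 8.0 following 15 min incubation at room temperature. Intensities at 480 nm excitation/540 nm emission are calibrated to an on-plate A488 concentration series, giving dye-equivalent concentrations.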
AID923: qHTS Assay for Allosteric/Competitive Inhibitors of Caspase-1: Spectroscopic Profiling in AFC Spectral Region. hit rate 1.1% among 75,000. compound fluorescence, AFC spectral region (405/520 nm); almost no hit is shown here. Potency, µM (titrated, usually from 57.5 µM), inactives show top-dose fluorescence increase, actives largely listed as activators; active means well fitted activation curve with a large enough effect; inconclusive means small, poorly fitted or top-dose-only effect;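 further: potency means the concentration at half of the fitted maximal effect; 0% is about no effect; scaled to a free AFC standard on each plate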
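Baseline compound fluorescence (AFC region, 405 nm ex/520 nm em) taken from the intercept of kinetic reads with 50 nM caspase-1 and 5 uM Ac-WEHD-AFC; normalized to an on-plate AFC standard curve; compounds titrated up to 57 uM.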
A647 autofl: compound autofluorescence in A647 spectral region. Compound fluorescence, A647 channel (570/671 nm), Tris buffer. max dye-equivalent concentration, M. 59,000 tested, under 10 active; active means above 1 µM dye equivalent; inconclusive means 0.1 to 1 µM; inactive means 0.1 µM or less;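 further: values scaled relative to a standard on each plate; highest value over a series up to 38 µM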
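Spectral profiling of library compounds in pH 8.0 Tris: 15 min room-temperature incubation, single ex/em pair (570/671 nm), response normalized to Alexa 647 equivalents.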
Resorufin autofl: compounds fluorescent in resorufin spectral region. Compound fluorescence, resorufin region 547/598 nm, buffer; hits give high values. max dye-equivalent concentration, M. hit rate 0.04% among 59,000; active = above 10 nM dye equivalent; inconclusive = 1 to 10 nM; inactive = 1 nM or less; a few of its hits are not listed in these tables; further: highest value over a series up to 38 µM
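Dye-equivalent concentration values derive from comparing each well's 547/598 nm fluorescence against resorufin standards included on every plate. Incubation was 15 min at room temperature in 100 mM Tris, pH 8.0.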
TSHR ag: TSH receptor (human) agonism; hit rate 0.48% among 73,000; Potency, µM (series often up to 57.1 µM), for inactives: at the top dose activation, usual class: activators; P16473; HEK293-CNG-TSHR cells (CNG channel as cAMP sensor), membrane potential dye, cAMP; active = well fitted activation curve of enough size with the parental cells flat; inconclusive = any curve in the parental cells; inactive = parental cells flat and receptor cells flat or falling; further: potency means the concentration at half of the fitted maximal effect; % of control where 0% means no effect; weak receptor curves with flat parental cells got no call and are not listed
Target sequence (P16473 whole entry, looked up): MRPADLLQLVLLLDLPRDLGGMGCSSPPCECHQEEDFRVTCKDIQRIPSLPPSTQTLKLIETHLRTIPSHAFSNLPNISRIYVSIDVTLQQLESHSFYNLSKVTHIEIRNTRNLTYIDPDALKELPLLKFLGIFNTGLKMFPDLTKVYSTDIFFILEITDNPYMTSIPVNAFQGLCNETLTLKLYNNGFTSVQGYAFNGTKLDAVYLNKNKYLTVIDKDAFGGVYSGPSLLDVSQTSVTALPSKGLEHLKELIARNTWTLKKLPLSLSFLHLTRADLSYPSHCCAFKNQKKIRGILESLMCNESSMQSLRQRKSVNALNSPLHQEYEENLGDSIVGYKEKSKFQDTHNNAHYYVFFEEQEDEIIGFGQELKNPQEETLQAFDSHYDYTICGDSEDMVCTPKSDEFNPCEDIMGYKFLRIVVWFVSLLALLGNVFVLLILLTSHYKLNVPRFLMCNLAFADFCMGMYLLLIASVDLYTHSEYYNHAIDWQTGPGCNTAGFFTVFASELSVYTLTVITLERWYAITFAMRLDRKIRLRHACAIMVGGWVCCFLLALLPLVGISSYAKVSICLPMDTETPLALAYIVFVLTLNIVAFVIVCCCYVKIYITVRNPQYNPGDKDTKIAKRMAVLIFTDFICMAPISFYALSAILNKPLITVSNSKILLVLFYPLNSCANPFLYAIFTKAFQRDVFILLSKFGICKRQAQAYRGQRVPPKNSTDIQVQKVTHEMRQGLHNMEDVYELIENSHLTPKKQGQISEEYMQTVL
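cAMP rise detected as CNG-channel membrane depolarization by fluorescent dye (emission 590 nm), 30 min after compound, following 60 min dye loading containing 100 uM RO 20-1724 at room temperature. Cells: TSHR/CNG HEK 293, with parental CNG HEK 293 as control.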
* marks the source's active call; other numbers are inactive results; i = inactive; ? = inconclusive; / = not tested or not shown; & = joins results of further samples; [ ] = another dose, or the depositor's remark. These rows are one share of the data (hit frequency here may not be typical).

SMILES	A488 autofl	AID923	A647 autofl	Resorufin autofl	TSHR ag
Nc1ccccc1N=Cc1c(O)n(CCC2=CCCCC2)c(=O)[nH]c1=O	i	2.6%	1e-09	i	/
CS(=O)(=O)Nc1ccc(Cc2noc(-c3ccc4[nH]cc(CCN)c4c3)n2)cc1	/	-1.4%	/	/	7%
CC(=O)O[C@H]1CC[C@@]2(C)[C@@H](CC[C@H]3[C@H]2CC(=O)[C@]2(C)[C@@H]3C[C@@H](N3CC3)[C@H]2C(C)=O)C1	i	-3.4%[11.5 µM]	3.7e-08	i	18%[11.4 µM]
CC(C(N)=O)N1CC(c2ccc(Cl)cc2)CC1=O (stereo not drawn)	i	1.0%	2.6e-08	i	4%
COc1ccc(C(c2ccc(OC)cc2)C(Cl)(Cl)Cl)cc1	/	3.5%&0.7%	/	/	?
CCOP(=O)(C#CC(C)(C)C)C(O)(c1ccccc1)C(F)(F)F (stereo not drawn)	i	-0.8%	3.2e-08	i	/
CC[C@H](CO)NC(=O)[C@H]1C=C2c3cccc4[nH]cc(c34)C[C@@H]2N(C)C1	i	3.1%[25.7 µM]	1.8e-09	i	-17%[25.6 µM]
CC12CN3CC(c4ccccc4)(CN(C1)C31CCCCC1)C2=O	i	-1.2%	1e-09	i	-13%
FC(F)(F)/C(=N\P(=S)(N1CCOCC1)N1CCOCC1)N1CCOCC1	i	0.0%	2.2e-08	i	-1%
CC(O)CCl (stereo not drawn)	/	3.6%	/	/	?
COc1ccc(C(=O)O[C@H]2CC[C@@]3(C)[C@H]4CC[C@H]5[C@]3(C[C@]3(O)[C@H]6CN7C[C@H](C)CC[C@H]7[C@](C)(O)[C@]6(O)[C@H](O)C[C@]53O)O[C@]24O)cc1OC	i	-0.1%[11.5 µM]	1e-09	i	/
COc1ccc(NC(=O)N2CC[C@@]3(CCCN(C(=O)Oc4ccccc4)C3)C2)cc1	i	1.0%	4.5e-09	i	3%
O=C(CCn1c(=O)oc2ccccc21)N1CCC2(CC1)OCCO2	i	-0.3%	7.9e-09	i	-6%
CCCC1(CCC)C(=O)NC(=NCc2ccccc2)NC1=O	i	0.4%	1.9e-08	i	5%
CN(C(=O)Oc1cccc2cccnc12)c1ccccc1	/	0.3%	/	/	7%
Cc1cc(OCC(=O)OC(C)C)c2c3c(c(=O)oc2c1)CCCC3	/	7.3%	/	/	?
C=CCSC1=N/C(=C\c2cc(OC)c3c(c2)OCO3)C(=O)S1	/	12%	/	/	?
CCOC(=O)c1ncn2c1CN(C)C(=O)c1cc(N=[N+]=[N-])ccc1-2	/	2.0%	/	/	-3%
C=CCOC(=O)C1=C(C)OC(N)=C(C(=O)OCC)C12C(=O)N(CC(N)=O)c1ccccc12 (stereo not drawn)	i	1.5%	1e-09	i	/
O=[N+]([O-])c1ccc(O)c([N+](=O)[O-])c1	/	-11%	/	/	?
OCCCBr	/	0.0%	/	/	?
CN1C[C@H](CO)C=C2c3cccc4[nH]cc(c34)C[C@@H]21	i	5.1%[25.7 µM]	2.9e-09	i	-17%[25.6 µM]
c1nc(N2CC2)c2cnn([C@@H]3CCCCO3)c2n1	i	-0.1%[11.5 µM]	3.3e-09	i	0%[11.4 µM]
O=C(COc1ccc(Br)cc1)N1CCN(C2CCCC2)CC1	/	-1.5%	/	/	1%
O=C(Oc1ccccc1)N1CCC2(CCN(Cc3ccncc3)CC2)CC1	i	0.7%	1e-09	i	5%

Additional records follow:
SMILES	A488 autofl	AID923	A647 autofl	Resorufin autofl	TSHR ag
O=Nc1ccc(Nc2ccccc2)cc1	/	1.5%	/	/	?
Cc1ccc(Cn2c(C)c3cnn(CC(=O)N4CCC5(CC4)OCCO5)c(=O)c3c2C)cc1	/	-1.6%	/	/	22%
C[C@]1(C(=O)O)[C@@H]2CC[C@@H](O2)[C@@]1(C)C(=O)O	i	-3.9%	4e-08	i	9%
CCCCn1c(O)c(C(C)=NCCN2CCCCC2)c(=O)[nH]c1=O	i	1.5%	1e-09	i	0%
CC(=O)Nc1ccc(OC(=O)N(C)c2ccccc2)cc1	/	-0.9%	/	/	-2%[11.4 µM]
O=c1[nH]c(=O)n(C2CCCCCC2)c(O)c1C=NCCCN1CCOCC1	i	1.3%	1.1e-09	i	-10%
O=C(NCNC(=O)N[C@H]1C(=O)NC(=O)N1CO)N[C@H]1C(=O)NC(=O)N1CO	i	-1.3%[25.7 µM]	4.2e-09	i	-5%[25.6 µM]
O=C1C=CC(=O)C=C1	i	-2.1%	5.7e-08	i	0%&9%
Cc1ccc2c(c1)C1CN(C)CCC1N2C(=O)c1ccc(Br)o1 (stereo not drawn)	i	0.0%	1e-09	i	5%
COc1cccc(OCC(=O)N2CCN(C)CC2)c1	/	0.9%	/	/	-11%
Nc1ncc(P(=S)(N2CCOCC2)N2CCOCC2)s1	i	/	2.9e-08	i	/
COc1ccc(CNC(=O)/C=C\c2ccc3[nH]cc(CCN(C)C)c3c2)cc1	i	-1.9%	5.2e-08	i	?
Cc1sc2ncn(CC(=O)N3CCC4(CC3)OCCO4)c(=O)c2c1C	i	0.7%	1e-09	i	1%
N#Cc1cc2c(nc1SCC(=O)Nc1ccc(Cl)cc1)C1CCN2CC1	i	-1.2%	4.3e-08	i	-9%
CC(C)[C@]1(O)[C@@H](OC(=O)c2ccc[nH]2)[C@]2(O)[C@@]3(C)C[C@@]4(O)O[C@@]5([C@H](O)[C@@H](C)CC[C@]35O)[C@]2(O)[C@]41C	i	-0.7%[11.5 µM]	2.9e-09	i	2%[11.4 µM]
O=C(NCC(c1cccnc1)N1CCN(c2ccccc2F)CC1)Oc1ccccc1 (stereo not drawn)	i	1.1%	2.5e-09	i	26%
O=C1NCCN2CCCC12 (stereo not drawn)	i	/	7.2e-08	i	/
O=C(O)C(Oc1nc(=S)[nH]c(=S)[nH]1)(c1ccc(Cl)cc1)c1ccc(Cl)cc1	i	0.3%[11.5 µM]	2.6e-09	i	-1%[11.4 µM]
COc1ccc2c(c1)c(C(=O)O)c(C)n2CC(C)C	i	/	1e-09	i	/
COc1ccccc1CN1CCCCC1c1cccnc1 (stereo not drawn)	i	-0.3%	4.2e-08	i	10%
CC1(C)CC2(CCO1)NCCN1C(=O)CSC12 (stereo not drawn)	i	2.4%	2.7e-09	i	-7%
Cc1ccc(C)c(C2(O)CC(C)N(C)CC2C)c1 (stereo not drawn)	i	/	1.2e-08	i	/
COc1ccccc1-n1c(O)c(C=NCc2ccc3c(c2)OCO3)c(=O)[nH]c1=O	i	-1.0%	1e-09	i	?
CS(=O)(=O)O[C@H]1CN2CCC1CC2	i	4.4%[11.5 µM]	1e-09	i	9%[11.4 µM]
CCOCCN1CCC(OC(C)=O)C(C)C1 (stereo not drawn)	i	/	1e-09	i	/

Given with two lines to a compound: part of the list above.
The line under a structure holds: A488 autofl | AID923 | A647 autofl | Resorufin autofl | TSHR ag
> O=Nc1ccc(Nc2ccccc2)cc1
    / | 1.5% | / | / | ?
> Cc1ccc(Cn2c(C)c3cnn(CC(=O)N4CCC5(CC4)OCCO5)c(=O)c3c2C)cc1
    / | -1.6% | / | / | 22%

Grouped by structure: the entries above with fluorine (three)
SMILES	A488 autofl	AID923	A647 autofl	Resorufin autofl	TSHR ag
CCOP(=O)(C#CC(C)(C)C)C(O)(c1ccccc1)C(F)(F)F (stereo not drawn)	i	-0.8%	3.2e-08	i	/
FC(F)(F)/C(=N\P(=S)(N1CCOCC1)N1CCOCC1)N1CCOCC1	i	0.0%	2.2e-08	i	-1%
O=C(NCC(c1cccnc1)N1CCN(c2ccccc2F)CC1)Oc1ccccc1 (stereo not drawn)	i	1.1%	2.5e-09	i	26%

(continued)
SMILES	A488 autofl	AID923	A647 autofl	Resorufin autofl	TSHR ag
CC(C)CCNC(=O)c1c(N)n(CC2CCCO2)c2nc3ccccc3nc12 (stereo not drawn)	i	0.5%	1.8e-08	i	?
O=c1[nH]c(=O)n(Cc2ccccc2)c(O)c1C=NCCCO	/	-0.8%	/	/	-12%
CCOc1cccc(C2NCc3ccccc3-n3cccc32)c1O (stereo not drawn)	i	-0.8%	1.3e-08	i	4%
CCc1ccc(OCCCN=C(C)c2c(O)n(C)c(=O)n(C)c2=O)cc1	/	1.7%	/	/	?
CN1CCN(CC(=O)Nc2ccc(Cl)cc2C(=O)c2ccccc2)CC1	i	0.2%	1.8e-08	i	18%
Cc1nc2cc(C(F)(F)F)ccc2n1C1CCN(Cc2nnnn2Cc2cccs2)CC1	i	-1.0%	3.7e-08	i	-15%
NCC[C@H](O)C(=O)N[C@H]1C[C@@H](N)[C@@H](O[C@H]2O[C@@H](CN)[C@@H](O)[C@@H](O)[C@@H]2N)[C@@H](O[C@H]2O[C@@H](CO)[C@@H](O)[C@@H]2O)[C@@H]1O	i	-1.3%[25.7 µM]	2.2e-08	i	4%[25.6 µM]
Clc1ccc(COC(Cn2ccnc2)c2ccc(Cl)cc2Cl)cc1 (stereo not drawn)	i	2.6%&0.0%	1e-09	i	?
COC(=O)[C@@]1(Cc2ccccc2)[C@H]2c3cc(C(=O)N(C)C)[nH]c3C[C@H]2CN1C(=O)c1ccccc1	/	0.0%	/	/	?
O=C(NC[C@@H]1CCCCN1)c1cc(OCC(F)(F)F)ccc1OCC(F)(F)F	i	0.3%[25.7 µM]	4e-09	i	5%[25.6 µM]
Cc1ccc(-n2c(O)c(C=Nc3ccccc3N)c(=O)[nH]c2=O)cc1C	i	8.7%	3.2e-08	i	-8%
CN1CCN(C(=O)O[C@@H]2c3nccnc3C(=O)N2c2ccc(Cl)cn2)CC1	i	-1.7%	6.7e-08	i	?
c1ccc(C2CC3CC4(CCCC4)N2O3)cc1 (stereo not drawn)	/	2.3%	/	/	8%
NC(=O)c1ccc(OC[C@H](O)CN2CC=C(c3ccc(F)cc3)CC2)cc1	i	-0.6%	1.3e-09	i	5%
C[C@@H](N)Cc1cnc[nH]1	/	1.0%	/	/	-6%
Cc1nn(C2CCOC(C)(C)C2)c2c1C(c1ccc3c(c1)OCO3)SCC(=O)N2 (stereo not drawn)	/	0.2%	/	/	-1%
O=C(CCc1nc(-c2ccccc2F)no1)N1CCC2(CC1)OCCO2	i	-0.1%	1.4e-08	i	1%
C[N+](=O)[O-]	/	1.0%	/	/	3%
CCCCC1(CN2CCCC2=O)C(=O)NC(=O)NC1=O	i	/	1e-09	i	/
ClC1=C(Cl)C2(Cl)C3C4C=CC(C4)C3C1(Cl)C2(Cl)Cl (stereo not drawn)	/	6.3%	/	/	30%
CO[C@@H]([CH2][Hg])CN1C(=O)c2ccccc2S1(=O)=O.Cn1c(=O)c2nc[nH]c2n(C)c1=O	i	-0.2%[11.5 µM]	3.4e-08	i	2%[11.4 µM]
CN(C)c1ccc(CN2CC=C(c3ccc(F)cc3)CC2)cc1	/	2.5%	/	/	-9%
Cc1ccc2c(c1)C1CN(C)CCC1N2C(=O)Cn1cnc2c1c(=O)n(C)c(=O)n2C (stereo not drawn)	i	-2.3%	1e-09	i	-1%
CCN(CC)CCCC(C)N=C(c1ccccc1)c1c(O)n(C)c(=O)n(C)c1=O (stereo not drawn)	i	/	5.1e-08	i	/

An excerpt of these results, with values under each structure:
Below each compound – A488 autofl	AID923	A647 autofl	Resorufin autofl	TSHR ag
CN1CCN(C(=O)O[C@@H]2c3nccnc3C(=O)N2c2ccc(Cl)cn2)CC1
  i	-1.7%	6.7e-08	i	?
Clc1ccc(COC(Cn2ccnc2)c2ccc(Cl)cc2Cl)cc1 (stereo not drawn)
  i	2.6%&0.0%	1e-09	i	?
CCOc1cccc(C2NCc3ccccc3-n3cccc32)c1O (stereo not drawn)
  i	-0.8%	1.3e-08	i	4%
CCCCC1(CN2CCCC2=O)C(=O)NC(=O)NC1=O
  i	/	1e-09	i	/
CO[C@@H]([CH2][Hg])CN1C(=O)c2ccccc2S1(=O)=O.Cn1c(=O)c2nc[nH]c2n(C)c1=O
  i	-0.2%[11.5 µM]	3.4e-08	i	2%[11.4 µM]
CCc1ccc(OCCCN=C(C)c2c(O)n(C)c(=O)n(C)c2=O)cc1
  /	1.7%	/	/	?
C[N+](=O)[O-]
  /	1.0%	/	/	3%
